# Ba CapD inh = inhibitors of Bacillus anthracis CapD enzyme; z-score (test concentration not listed); purified CapD enzyme, fluorescence intensity read-out; stronger effect = lower value; some hits fall short of the stated cut; AID 492967; actives 0.23% (n = 140,000);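 active means z-score under -4 in either of two replicates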;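 further: stock transfer was 100 nL into about 40 µL; score is relative to mean and spread of the plate; one replicate is shown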
# AID504770 = growth inhibitors of E. coli YBA685 in a screen for V. cholerae RctB (chromosome II replication) inhibitors; E. coli YBA685 rctB-dependent plasmid, OD600 growth, 3 h; stronger effect = lower value; z-score (test concentration not listed); actives 0.27% (n = 130,000);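 active means z-score under -2 on both plates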;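 further: wells of about 30 µL received 100 nL stock; score is relative to mean and SD of the test wells; the first replicate is given; strong numbers were not always called active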
# Numbers without * were called inactive; . = no result given; & = joins results of further samples. Some of the compounds tested; rates above refer to the full screens.
canonical_smiles | Ba CapD inh | AID504770
CCn1c(-c2ccccc2)cc(C)c(S(=O)(=O)c2ccccc2)c1=O | 0.52 | .
COc1cccc(CNC(=O)c2[nH]c3cc(C)ccc3c2Sc2ccc(Cl)cc2)c1OC | -0.15 | 1.8
Cc1ccc2nc(NC(=O)CCCC(=O)O)sc2c1 | 0.045 | 0.15
S=c1nc2[nH]c3ccc(Br)cc3c2n[nH]1 | 1.4&-0.61 | 0.8
Cc1cc2nsnc2c2nsnc12 | 0.28 | 0.8
COC(=O)CC1Nc2ccccc2NC1=O (stereo not drawn) | 13 | -1.4
CN(C)c1cccc(N(C)C)c1C#N | 94 | .
CN(C)S(=O)(=O)c1cccc(CSc2nc3ccccc3n2CCC#N)c1 | . | 0.25
C1=CCC2CC=CC(C1)N2 (stereo not drawn) | . | -0.55
COc1cccc(N2C(=O)/C(=C\c3cc4c(cc3[N+](=O)[O-])OCO4)C(=O)NC2=S)c1 | 4.6 | .
CCN(CC(=O)Nc1cc(Cl)ccc1C)CC(=O)N1CCOC1=O | . | -0.45
COCc1cc(C)nc(SCC(=O)Nc2ccc(C(C)=O)cc2)c1C#N | 0.27 | .
S=C(NCCC1=CCCCC1)Nc1ccc2nsnc2c1 | 0.03 | -0.2
O=C(CCn1ccc2cc(S(=O)(=O)N3CCCC3)ccc21)NC1CC1 | 0.17 | 0.15
COC(=O)c1ccc(OC)c(I)c1 | 0.77 | -0.75
O=C(CCSc1ccc(Br)cc1)Nc1cccnc1 | -0.32 | 1.2
COC(=O)c1sccc1Oc1cc(C(F)(F)F)nc(SC)n1 | 0.15 | .
CCOC(=O)c1cnn(C(=O)Cc2cccc(OC)c2)c1N | 0.44 | -0.1
CCOc1cc2c(cc1OCC)-n1cccc1C(c1coc3ccccc3c1=O)NC2 (stereo not drawn) | 0.68 | -0.45
Nc1nc(CSc2nnc3c(n2)[nH]c2ccccc23)cs1 | -0.17 | -0.75

# The listing continues:
canonical_smiles | Ba CapD inh | AID504770
C/C(N)=C(/C#N)C(=O)CSc1ccccc1F | . | -0.25
COC(=O)c1ccc(N=Cc2nc(-c3ccc(Br)cc3)oc2O)cc1 | 0.34 | .
O=C1C2CCCCC2C(=O)N1c1ccc(S(=O)(=O)Nc2ncccn2)cc1 (stereo not drawn) | 0.15 | .
CCOC(=O)CSc1nc2c(cc1C#N)CCCC2 | 2.9 | 1.2
CCOc1cc([N+](=O)[O-])c(OCC)cc1N1CCOCC1 | 0.065 | .
COc1ccc(C)cc1S(=O)(=O)NC(Cc1c[nH]c2ccccc12)C(N)=O (stereo not drawn) | 0.65 | .
CC(C1CC1)N(C(=O)c1ccc(N)cc1)c1ccccc1 (stereo not drawn) | -0.6 | -0.25
NC(=O)C1CCN(C(=O)c2ccc3c(=O)n(Cc4cccc(Br)c4)c(=S)[nH]c3c2)CC1 | -0.13 | .
O=C(NCc1ccccc1)c1c(O)c2ccccc2[nH]c1=O | -0.24 | -0.95
CC(C)CNS(=O)(=O)c1ccc(CCC(=O)Nc2ccc3c(c2)OCO3)cc1 | 0.69 | 0.5
Cc1cc(C(=O)N(CCc2ccccc2)c2nc3ccccc3s2)on1 | . | 0.3
CC(CC(=O)Nc1nc(-c2cccs2)cs1)c1ccccc1 (stereo not drawn) | . | 0.1
COc1ccc(C(=O)N2CCN(c3ccc(Cl)c(Cl)c3)CC2)cc1OC | 0.06 | -0.7
C=C1SC(Nc2ccc(C)cc2)=NC1(C)C | 1.3 | -1.1
O=C(c1cccc(-n2c(=S)[nH]c3cc(Cl)ccc3c2=O)c1)N1CCN(c2ccccn2)CC1 | -0.29 | .
CC(=O)Nc1ccc(/C(N)=N/O)cc1 | -0.32 | .
COc1ccc(Cl)cc1NC(=O)C(C)N1c2ccccc2CC1C (stereo not drawn) | . | -0.3
O=C(OCCS(=O)(=O)c1ccccn1)c1ccccc1 | -0.9 | .
CSc1sc(SC)c(CO)c1CO | -0.15 | -0.65
COc1ccc(-c2nc3ccccc3c(=O)n2NCc2cc(Br)cs2)cc1OC | 0.47 | .

# Continuation:
canonical_smiles | Ba CapD inh | AID504770
COc1ccc(C2=NN(C(=O)CSc3nnc(CNC(=O)c4ccccc4F)n3C)C(c3ccc(C)cc3)C2)cc1 (stereo not drawn) | -0.095 | .
Cn1c2c(c3cc(Oc4ccccc4)ccc31)CCCC2=O | 0.16 | 0
CCC(=O)N1N=C(C(F)(F)F)CC1(O)c1ccc(F)cc1 (stereo not drawn) | 0.54 | 0.8
O=C(O)CCC(=O)N1N=C(c2ccc(Br)cc2)CC1c1cn(-c2ccccc2)nc1-c1ccccc1 (stereo not drawn) | -1 | .
Cc1cc(C(=O)CSc2nnc3ccccn23)c(C)n1C | . | -0.55
Cn1c(/C=N/n2cnnc2)nc2ccccc21 | 62 | -0.9
CC(C)Oc1cccc(NC(=O)Cc2ncc(C(F)(F)F)cc2Cl)c1 | -0.21 | -0.4
CCCCC(C(=O)OC(C)C)N1C(=O)C2C3c4ccccc4C(c4ccccc43)C2C1=O (stereo not drawn) | 0.035 | .
Cn1c(SCc2ccc(-c3nnco3)cc2)nnc1C(F)(F)F | -0.075 | -0.05
c1ccc(-c2[nH]ncc2-c2ccnc3ccccc23)cc1 | -0.73 | .
CCn1c(COC(=O)CCOc2cc(C)ccc2C)nc2cc(S(=O)(=O)N(C)C)ccc21 | . | -0.35
CCN(CC)S(=O)(=O)Cc1ccccc1 | . | -0.7
FC(F)(F)c1cccc(N=c2scc(-c3ccc4ccccc4c3)n2CCc2ccccc2)c1 | 6.4 | .
Cc1ccc(C(=O)NC2CCCCCC2)cc1NC(=O)c1ccco1 | . | 0.1
COc1cc(C2C3=C(CC(C)(C)CC3=O)OC3=C2C(=O)CC(C)(C)C3)ccc1OC(=O)Nc1cccc(Cl)c1 | -0.4 | .
NC(=O)c1c(Cl)ncc2c1NCC2 | 0.28 | -0.95
Cc1cc(C(=O)Cn2c(C)nc3ccccc32)c(C)n1-c1c(C)n(C)n(-c2ccccc2)c1=O | . | -0.55
Cc1cccc(N2OC(C)(N(O)c3cccc(C)c3)CC2(C)C)c1 (stereo not drawn) | . | 0.35
NS(=O)(=O)c1ccc(NC(=O)COC(=O)c2cccc(N3C(=O)CCC3=O)c2)cc1 | -0.065 | 0
Cn1ccnc1C(O)c1ccccc1 (stereo not drawn) | -0.14 | -0.35

# An excerpt of these results, field by field.
> CCn1c(COC(=O)CCOc2cc(C)ccc2C)nc2cc(S(=O)(=O)N(C)C)ccc21
  Ba CapD inh = . | AID504770 = -0.35
> CCN(CC)S(=O)(=O)Cc1ccccc1
  Ba CapD inh = . | AID504770 = -0.7

# More results
canonical_smiles | Ba CapD inh | AID504770
Cc1cccc(CNS(=O)(=O)c2ccc(Br)cc2)c1C | 0.6 | .
CCc1ccc(CNc2ccc3c(c2)ncn3CC)cc1 | 88 | -1.4
CCC(=O)Nc1sc2c(c1-c1nc3ccccc3s1)CCN(C(C)=O)C2 | . | 0.7
COc1ccc(OC)c(NC(=O)c2c(NCc3cccc(OC)c3OC)sc3c2CCCCC3)c1 | 0.36 | .
CCc1ccc(CNC(=O)C2CCN(S(=O)(=O)N3CCCCC3)CC2)cc1 | 17 | -0.2
CCC(C)NC(=O)c1nc(-c2ccccc2)n(-c2ccccc2)n1 (stereo not drawn) | . | 1.5
CN1CCC(N(C)C(=O)c2ccccc2F)CC1 | 0.24 | -0.5
Cc1sc2ncnc(SCC(=O)NC(=O)c3cccn3C)c2c1C | . | 0.05
Cc1cc(C(=O)CSc2nnc(-c3cccs3)o2)c(C)n1CCc1ccc(F)cc1 | . | 0.25
Cc1ccc(P(=Nc2ccccc2C(F)(F)F)(OCCN2CCOCC2)C(C)(C)C)o1 (stereo not drawn) | . | 0.1
CCCCCn1c(=O)c(Cc2ccccc2)c(O)c2ccccc21 | 7.1 | -1.5
CCOc1cc(C2Nc3ccc4ccccc4c3C3=C2C(=O)CC(C)(C)C3)ccc1O (stereo not drawn) | 64 | .
CCCc1[nH]n(-c2ccc(F)cc2)c(=O)c1C=Nc1ccc(CC)cc1 | -0.88 | .
C=CCSc1nnc(NC(=O)c2ccc3c(c2)SC2=NS(=O)(=O)CCN23)s1 | . | 0.25
O=C1/C(=C/c2c(NCCCn3ccnc3)nc3ccccn3c2=O)SC(=S)N1Cc1ccco1 | 0.51 | .
O=C(NCc1csc2ccc(Cl)cc12)c1ccno1 | 0.075 | -0.65
CCOC(=O)N1CCN(CC(O)COc2ccc(C3CCCCC3)cc2)CC1 (stereo not drawn) | -0.73 | 1.9
Cc1cc2c(n1-c1ccc(C(=O)N3CCC4(CC3)OCCO4)cc1)CCC(C)C2 (stereo not drawn) | -1.1 | -0.85
CCn1cc(/C=N/O)c2ccccc21 | . | 1.2
O=C(CCCN1C(=O)/C(=C\c2ccco2)SC1=S)Nc1ccc2c(c1)OCO2 | . | 0.7

# New compounds follow.
canonical_smiles | Ba CapD inh | AID504770
CC(C)C(=O)Nc1c(C(=O)c2ccc(F)cc2)oc2ccccc12 | 53 | 0.6
COc1ccnc(-n2cccc2/C=N/OCc2cccc(C(F)(F)F)c2)c1C#N | -0.35 | .
O=c1[nH]c2ccc(Nc3cc(N4CCOCC4)ncn3)cc2[nH]1 | -0.04 | -0.75
COc1ccc(C(CC(=O)Nc2cccnc2)N2Cc3ccccc3C2=O)cc1 (stereo not drawn) | 0.03 | -0.7
Cc1csc2sc(/C=C(\C#N)S(C)(=O)=O)c(C)c12 | 0.055 | -0.6
Cc1cc(C)c2c(c1)-c1c(ssc1=S)C(C)(C)N2C(=O)C(C)C | 0.14 | .
CC(C1CC1)N(C(=O)/C=C/c1ccccc1)c1ccccc1 (stereo not drawn) | 0.49 | 0.3
O=C(O)CCC(=O)N1CCc2cc(S(=O)(=O)NCc3cccs3)ccc21 | -0.36 | 1.1
CC(O)(CC(=O)O)C(F)(F)F (stereo not drawn) | . | -0.6
O=C(Nc1cccnc1)c1ccc2snnc2c1 | -0.76 | -0.75
O=C(CSc1ncnc2ccccc12)NC(c1ccccc1)c1ccccc1 | 0.26 | -0.45
N#CCCn1cc(C(=O)CSc2ccccn2)c2ccccc21 | . | -0.65
O=C(CCN1CCC(c2ccc(Cl)s2)=N1)c1ccc(Cl)s1 | -0.44 | 2
OCCCc1cc(-c2ccc(Cl)cc2)n[nH]1 | -0.69 | .
C=CCN(CC(=O)O)S(=O)(=O)c1ccc(Cl)cc1 | . | -0.85
CCn1c(SCC(=O)Nc2cccc(Cl)c2C)nnc1C1CC1 | . | -0.3
CCOC(=O)c1c(CN2CCN(CC#N)CC2)n(-c2ccccc2)c2cc(Br)c(OC(C)=O)cc12 | -0.48 | .
O=C(CCc1ccccc1)Nc1nccs1 | . | -0.7
CCOC(=O)c1sc(NC(=O)c2ccccc2OC)nc1-c1ccccc1 | 0.87 | -0.8
Nc1nc2ccccc2oc1=O | . | 0

# (next part)
canonical_smiles | Ba CapD inh | AID504770
Cn1c(C(=O)NC2CCCC2)cc2oc3ccccc3c21 | 0.55 | 1.1
O=C(NCc1ccco1)c1ccc2c(=O)n(CC3CCCO3)c(SCc3cccc([N+](=O)[O-])c3)nc2c1 (stereo not drawn) | 0.02 | .
CC(Oc1ccc(OC(F)(F)F)cc1)C(=O)O (stereo not drawn) | 0.39 | .
CCN(Cc1ccccc1)C(=O)c1cc2c(=O)oc3ccccc3c2s1 | 1.1 | -0.45
CCc1ccc(CNC(=O)COc2cc(=O)n(C)c3ccccc23)cc1 | 0.02 | 1.1
Cn1c(C(=O)NCc2ccccc2)cc2oc3ccccc3c21 | 41 | 0.35
CCOC(=O)C1CCN(C(c2cccc(Cl)c2)c2c(NC(C)=O)sc3c2CCCC3)CC1 (stereo not drawn) | -0.81 | -2
O=C(/C=C/c1cccs1)Nc1cccc(C(F)(F)F)c1 | 0.095 | 0.05
CN1C(=O)C(O)(CC(=O)c2cccc(N3C(=O)C4CCCCC4C3=O)c2)c2ccccc21 (stereo not drawn) | -0.43 | .
O=C(CSc1nc2ccccc2nc1Cc1ccc(F)cc1)NCc1ccccc1 | 0.065 | .
COc1ccc(-c2cc(-c3ccccc3)nc(SCC#N)c2C#N)cc1 | 10 | .
COc1ccc(-c2c(C)nn3c(N)c(C#N)cnc23)cc1OC | -0.2 | -0.4
CC(=O)OC1C2CCC1C(N1CCCCC1)CC2 (stereo not drawn) | 0.21 | -0.15
Nc1c(C(=O)Nc2ccc(S(N)(=O)=O)cc2)sc2nc3c(cc12)CCCCC3 | 13 | .
CN(C)S(=O)(=O)c1cccc(C(=O)Oc2ccc3c(c2)OCO3)c1 | . | -0.35
CN1CCSC1=Nc1cccc(C(F)(F)F)c1 | . | 0.15
CCc1ccc(NC(=O)c2cc3c(=O)oc4ccccc4c3s2)cc1 | -1.2 | .
CC1CC(=O)Nc2ccccc2N1C(=O)c1ccccc1Cl (stereo not drawn) | 0.23 | .
Cc1ccc(-c2cc3ccccn3c2)cc1 | 68 | -0.25
COc1ccc(NC(=O)c2oc(=O)c3ccccc3c2-c2ccccc2)cc1 | 0.3 | 0.85

# Going on with the list:
canonical_smiles | Ba CapD inh | AID504770
CS(=O)(=O)N1CCn2c(nc3ccccc32)C1 | -0.18 | 1.8
CC(OC(=O)c1cc(Cl)c(O)c(Cl)c1)C(=O)N1CCCCC1 (stereo not drawn) | . | -0.5
O=C1Nc2ccccc2C12Oc1ccccc1C1CC(c3ccccc3)=NN12 (stereo not drawn) | 1.7 | .
O=C1c2ccc(F)cc2C(=O)N1C1CCCCCCC1 | 0.45 | 0.7
CN(C)c1nc(N(C)C)nc(N(C)C)n1 | 0.45&0.62&-0.36 | -1.4&0.5

# Whole records as entered above:
# Profile of O=C1c2ccc(F)cc2C(=O)N1C1CCCCCCC1 = Ba CapD inh: 0.45; AID504770: 0.7
# Profile of CN(C)c1nc(N(C)C)nc(N(C)C)n1 = Ba CapD inh: 0.45&0.62&-0.36; AID504770: -1.4&0.5

# Compound activity as filed in PubChem.
